HSV replic up: enhancers of HSV replication in host cells, fold increase, host cell viability; HSV replication augmentation in cells; AID 1956, 2009; maximum fold increase; hit rate 0.005% among 220,000;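 active = peak rise of 1.5-fold or more in the series; inconclusive = self-fluorescent or not available for retest; tested in PC3 cells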;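 also: first round at 10 µM; read as green reporter fluorescence; hits show the peak of a series up to 25 µM; 1 = signal of infected wells without compound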
RGS16-Gao HTS: modulators of RGS16 binding to Galphao, primary screen, biochemical, human proteins, multiplexed bead flow cytometry | Regulator of G-protein signaling 16 (Homo sapiens) + Guanine nucleotide-binding protein … | bead-based flow cytometry RGS16-Galphao binding, fluorescence; actives lie on both sides | binding response (% of control), % at 10 µM | hit rate 0.38% among 220,000 | AID 1441, 2008;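 active = below 25% or above 175%, edge rows of some plates excepted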;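 also: Galphao activated by GDP with aluminum fluoride before binding; 100% = wells without compound and 0% = beads without RGS; some results beyond the cut were filed as inactive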
Target sequence (O15492 whole entry, looked up): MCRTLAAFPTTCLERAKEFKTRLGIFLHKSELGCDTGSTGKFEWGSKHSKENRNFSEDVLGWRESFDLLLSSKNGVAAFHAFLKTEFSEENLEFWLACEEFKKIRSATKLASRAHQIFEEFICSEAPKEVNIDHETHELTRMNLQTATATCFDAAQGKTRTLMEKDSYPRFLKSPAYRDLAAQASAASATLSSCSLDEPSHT
Target sequence (P09471 whole entry, looked up): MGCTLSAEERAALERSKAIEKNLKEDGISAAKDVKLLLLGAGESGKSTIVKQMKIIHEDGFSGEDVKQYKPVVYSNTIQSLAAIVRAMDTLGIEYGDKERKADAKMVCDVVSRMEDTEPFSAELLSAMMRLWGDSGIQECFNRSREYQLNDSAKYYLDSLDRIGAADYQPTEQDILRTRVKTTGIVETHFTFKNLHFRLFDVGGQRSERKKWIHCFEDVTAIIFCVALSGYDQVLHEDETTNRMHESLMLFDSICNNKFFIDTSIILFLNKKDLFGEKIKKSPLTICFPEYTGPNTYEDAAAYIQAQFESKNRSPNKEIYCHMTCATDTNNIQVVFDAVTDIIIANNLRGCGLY
GALR2 agonist: GALR2 receptor agonists, primary screen, cell-based; Galanin receptor type 2 (Homo sapiens), O43603; GALR2-expressing cells, agonist activation read-out; activation, %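 (tested at 5 µM)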; hit rate 0.48% among 140,000; AID 803, 2007;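 active = above mean plus 3 SD of all compounds, about 5% in these data, not always enough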;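 also: 0% = vehicle buffer wells and 100% = reference agonist at full effect; tested in CHO reporter cells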
Target sequence (O43603 whole entry, looked up): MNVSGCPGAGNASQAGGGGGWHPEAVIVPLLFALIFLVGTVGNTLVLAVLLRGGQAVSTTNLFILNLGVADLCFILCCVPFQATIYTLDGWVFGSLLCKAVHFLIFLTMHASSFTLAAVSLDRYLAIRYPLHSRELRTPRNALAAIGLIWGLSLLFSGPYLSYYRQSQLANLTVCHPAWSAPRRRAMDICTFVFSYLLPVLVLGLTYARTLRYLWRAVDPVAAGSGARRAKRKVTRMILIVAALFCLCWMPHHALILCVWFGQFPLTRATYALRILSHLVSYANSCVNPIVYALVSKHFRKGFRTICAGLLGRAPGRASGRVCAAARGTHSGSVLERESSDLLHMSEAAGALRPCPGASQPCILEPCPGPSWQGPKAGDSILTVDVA
INS promoter inh: inhibitors of insulin promoter-driven GFP, primary screen, imaging, TRM-6 cells (human fetal islet line), eGFP reporter, cell count | reporter expression induced with tamoxifen | inhibition, % at 2 µM | hit rate 0.9% among 130,000 | AID 1273, 2008;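 active = inhibition above the mean plus 3 SD, with well images judged a real hit on visual review, cut at about 60% in these data, passing the limit was not always enough; inconclusive = inhibition over the cutoff but images rejected on review; inactive = inhibition not above the cutoff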
PKD1 inh: inhibitors of human PKD1 kinase, biochemical, fluorescence polarization; Serine/threonine-protein kinase D1 (Homo sapiens), Q15139; PKD1 kinase fluorescence polarization assay; inhibition, %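 (about 10 µM by stock and volumes)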; hit rate 0.056% among 200,000; AID 797, 2007;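 active = inhibition of 50% or more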;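 also: controls were vehicle for no effect and a reference inhibitor for full effect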
INS promoter inh cell count: further read-out of INS promoter inh, marked with its call; normalized cell count, %; measured here: cell count, toxicity; reference of the scale not given here;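 cells exposed to compound for 48 h; stained nuclei by imaging scaled within each plate; lower means fewer cells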
HSV replic up primary fold: second read-out of HSV replic up, no call of its own (marks repeat the call); fold increase; compound at 10 µM; measured here: primary screen fold increase 10 uM; tested in PC3 cells;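 GFP signal in the first replicate; 1 = infected wells without compound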
Active calls of the source: *; i = inactive; ? = inconclusive; nt = no result given.

SMILES	HSV replic up	HSV replic up primary fold	RGS16-Gao HTS	GALR2 agonist	INS promoter inh	INS promoter inh cell count	PKD1 inh
COc1ccc(S(=O)(=O)N2CCOCC2)cc1NC(=O)CSc1cccc[n+]1[O-]	i	1.1	106	nt	nt	nt	nt
O=C(OCCN1C(=O)CCC1=O)c1ccc(S(=O)(=O)N2CCCCC2)cc1	i	0.9	102	-0.4	8	123	-13
CCc1ccccc1NC(=O)CCCSc1nc2ccccc2s1	i	1.1	96	-2.5	nt	nt	-9
Cc1cc(C)c2c(c1)NC(c1cc3c(cc1Br)OCO3)C1CC=CC21 (stereo not drawn)	i	1.1	102	-1.5	30	120	-13
O=C1C=C(Nc2ccc(Cl)cc2)C(=O)N1c1ccc(Cl)cc1	i	1	109	0.8	3	137	-2
CCCNCC1C(Oc2ccc(Cl)cc2)C(=O)N1c1ccccc1C (stereo not drawn)	i	0.7	110	0.9	0	114	-5
O=C(NCCOc1ccccc1F)Nc1ccc(Br)cc1	?	nt	103	nt	nt	nt	5
O=C(Nc1cccc(S(=O)(=O)Nc2ccc(Cl)cc2)c1)c1cc2c(s1)CCCC2	i	0.98	97	-0.2	nt	nt	-7
COc1cccc(C2CC(c3ccccc3)=NN2S(=O)(=O)c2ccc(C)cc2)c1OC (stereo not drawn)	i	1.2	105	nt	nt	nt	-5
CC1(C)CC(=O)C(N=Nc2cccc([N+](=O)[O-])c2)=C(O)C1	i	0.88	96	nt	nt	nt	nt
COC(=O)c1nn(-c2ccc(OC)cc2)c(=O)cc1O	i	0.91	100	nt	-4	155	-5
O=c1cc(O)nc(SCc2ccccc2)n1-c1ccc(F)cc1	i	0.97	122	-4.8	0	91	1
O=C(O)[C@H]1CCCC[C@H]1C(=O)NCCNC(=O)[C@@H]1CCCC[C@@H]1C(=O)O	i	0.97	99	-0.5	100*	17*	0
CNS(=O)(=O)c1cccc2cccnc12	i	1	97	0.7	-393	32	0
CCOC(=O)C(C(=O)OCC)N(C#N)c1nc(SC)nc(N(C)C)n1	i	0.94	96	-0.8	nt	nt	-3
CCC(=O)c1ccc(OC(C)C(=O)NC2(C#N)CCCCC2)cc1 (stereo not drawn)	i	0.94	100	nt	-13	125	-8
CSc1nc2nc(C(F)(F)F)cc(-c3ccccc3)n2n1	i	0.92	97	-2.6	-23	142	3
CCC(CC)C(=O)Nc1cccc(C(=O)Nc2ccc(S(N)(=O)=O)cc2)c1	i	1.1	101	nt	nt	nt	2
COc1ccc(C2(O)CCN(C(=O)NC3CCCCC3)CC2)cc1	i	0.75	101	-1.1	nt	nt	-2
CCN1C(=O)CSc2ccc(C(=O)NCCCN3CCOCC3)cc21	i	0.96	107	0.1	-6	116	-1
CC(C)Oc1ccc(C(=O)NC(=S)Nc2ccc(CN3CCOCC3)cc2)cc1	i	0.87	97	-1.2	nt	nt	0
O=C(Cc1ccc(Br)cc1)Nc1cccc(-c2cn3c(n2)SCC3)c1	i	0.87	130	nt	27	30	-5
CCC1CCCCN1C(=O)N[C@@H](CCSC)C(=O)OC (stereo partly drawn)	i	1.1	101	-2.9	nt	nt	-1
COC(=O)c1c(NC(=O)CSc2ncnc3c2cnn3-c2ccccc2Cl)sc2c1CCCC2	i	0.93	120	-0.5	43	131	-3
COC(=O)c1c(NC(=O)/C=C/C(=O)O)sc(C)c1-c1ccc(C)c(C)c1	i	0.91	114	-1.2	15	72	-18
COC(=O)c1cn(NC(=O)c2cc(OC)c(OC)c(OC)c2)c(=O)c2ccccc12	i	0.95	99	-1.2	-3	105	-10
Cc1cccc(N(CC(=O)NCc2ccccc2)C(=O)Cn2nnc(-c3ccc(C)o3)n2)c1	i	0.85	106	-0.7	0	83	-10
CCOC(=O)C1CN(S(=O)(=O)c2ccccc2)c2cc(S(=O)(=O)CC)ccc2O1 (stereo not drawn)	i	0.81	98	-1.8	0	144	-3
COc1ccccc1CP(=O)(c1ccccc1)c1ccccc1	i	1.1	51	-0.9	3	129	13
O=C(NC(=S)Nc1ccc(Oc2ccccc2)cc1)c1ccc(Cl)cc1	i	1	104	-2.9	30	106	-2
Cc1cccc(-c2nc(CS(=O)CC(=O)NCCCSC3CCCCC3)c(C)o2)c1 (stereo not drawn)	i	0.83	106	0.2	nt	nt	-11
CCN(CC)C(=S)SCC(=O)c1c(C)[nH]c2ccccc12	i	0.91	97	-0.5	nt	nt	-1
COc1ccc(N2CCN(C(=O)CNC(=O)Cn3c(C)cc4ccccc4c3=O)CC2)cc1	i	0.82	99	-1.7	-21	122	-1
CS(=O)(=O)NN1C(=O)c2ccccc2NC1c1cccs1 (stereo not drawn)	i	0.98	101	nt	nt	nt	1
Cc1cc(N2CCN(C)CC2)nc2ccc(NC(=O)CCC(=O)NCc3ccco3)cc12	i	0.78	140	-3.3	44	129	7
Cc1ccc(-c2noc(CCCC(=O)Nc3cccnc3)n2)cc1	i	0.95	97	-0.6	-2	102	-1
Brc1c(CSc2nncc3ccccc23)nc2ccccn12	i	1.1	96	nt	nt	nt	7
CCOC(=O)N1CCN(c2c(NCc3ccc(F)cc3)c(=O)c2=O)CC1	i	0.66	95	nt	nt	nt	nt
Nn1c(SCC(=O)NC2CCCc3ccccc32)nnc1-c1cccs1 (stereo not drawn)	i	0.64	105	-1.6	nt	nt	5
CC1Cc2ccccc2N1C(=O)COC(=O)c1ccc(S(=O)(=O)N(C)C)cc1 (stereo not drawn)	i	0.99	94	-1.5	-12	148	-6
CCOc1ccc(-n2c(=O)[nH]cc(C(=O)Nc3ccc(OC)c(OC)c3)c2=O)cc1	i	0.9	101	nt	31	138	-7
CCOC(=O)N1CCN(S(=O)(=O)c2ccc(C(=O)Nc3ccc4c(c3)C(=O)NC4=O)cc2)CC1	i	0.94	115	-0.2	24	114	-6
O=C1CC(N2CCN(C/C=C/c3ccccc3)CC2)C(=O)N1Cc1ccc(N2CCCC2=O)cc1 (stereo not drawn)	i	0.97	102	0.1	-82	130	1
Clc1ccc(-c2n[nH]c3c2CCC3)c(Cl)c1	i	0.73	107	-0.3	30	87	4
O=C(Nc1nnc(C2CC2)s1)c1cccc(S(=O)(=O)N2CC(c3ccccc3)CC2=O)c1 (stereo not drawn)	i	0.96	105	-3.5	nt	nt	-1
COc1ccc(CCNC(=O)C2CC(=O)N(c3ccccc3)C2)cc1OC (stereo not drawn)	i	0.86	104	-0.1	11	69	-9
CCNC(=S)NNC(=O)c1cc(-c2cccc(OCC)c2)nc2ccccc12	i	1.2	101	-1.2	-3	99	-7
Cc1cc(C)c(S(C)(=O)=O)c(Oc2cccc(Cl)c2)n1	i	0.84	109	-0.4	nt	nt	9
COC(=O)c1cn[nH]c1NC(=S)Nc1ccc(C)cc1Cl	i	0.82	103	-1.6	-16	85	2
Cc1ccc(NC(=O)Cn2c(=S)[nH]c3ccccc32)cc1	i	0.92	101	nt	nt	nt	1
CCOc1ccccc1N1CCN(S(=O)(=O)c2cccs2)CC1	i	1	98	-2.4	-156	100	-2
CCOC(=O)CN(C(=O)CN1CCOCC1)c1ccc(Br)cc1	i	0.58	113	-0.6	nt	nt	-2
CC(C)c1c(C#N)c(N)nc(SCC(=O)c2cc3ccccc3oc2=O)c1C#N	i	0.63	101	1.5	nt	nt	-9
COCCn1c(C)cc(C(=O)CSc2cc(C)c3ccccc3n2)c1C	i	1.1	109	-0.4	nt	nt	-6
COc1ccccc1NC(=O)c1ccc(NC(=O)CSc2nnnn2C)cc1	i	1.1	101	-2.8	-46	143	-7
C=CCn1c(Br)nc2c1c(=O)n(C)c(=O)n2C	i	0.9	105	-0.2	66	87	-1
O=C1c2cccc3c(N4CCCCC4)ccc(c23)C(=O)N1c1cccc(O)c1	?	nt	106	nt	-345	122	-9
CCOc1ccc(NC(=O)Cc2c(O)c3ccccc3[nH]c2=O)cc1	i	0.96	107	0.3	-12	182	-7
CSc1ccc(/C=C/C(=O)OCC(=O)N(C)CCC#N)cc1	i	1.1	101	nt	nt	nt	-7
CCOC(=O)c1c(C)oc(NC(=O)COc2ccc(Cl)cc2C)c1C#N	i	1.1	103	-1.6	-21	125	22
(more compounds)
SMILES	HSV replic up	HSV replic up primary fold	RGS16-Gao HTS	GALR2 agonist	INS promoter inh	INS promoter inh cell count	PKD1 inh
CCOC(=O)c1ccc(-n2ccnc2)c(NC(=O)c2ccc(C(C)(C)C)cc2)c1	i	0.91	99	-0.7	nt	nt	-3
CCOc1ccc(N2C(=O)CC(N3CC(C)OC(C)C3)C2=O)cc1 (stereo not drawn)	i	0.95	102	-1.0	0	118	-11
COc1cc(N2CN=c3s/c(=C\c4ccccn4)c(=O)n3C2)cc(OC)c1OC	i	1	107	-0.5	-4	87	-12
COCc1nc(-c2cc(OC)c(OC)c(OC)c2)no1	i	0.91	106	-0.6	nt	nt	-10
CCCOc1ccc(Cn2cnc3ccccc32)cc1	i	0.67	100	-2.2	12	110	-2
Cc1snc(SCC(=O)N/N=C(\N)COc2ccc(F)cc2)c1C#N	i	0.77	104	-1.3	nt	nt	2
Cc1c(CCO)c(=O)oc2n[nH]c(-c3ccccc3)c12	i	0.93	98	nt	0	177	4
Cn1ncc(Oc2ccc([N+](=O)[O-])cc2)c(Cl)c1=O	i	1.1	126	nt	nt	nt	nt
COc1ccc(N2C(=O)CC(Sc3ccccc3C(=O)O)C2=O)c([N+](=O)[O-])c1 (stereo not drawn)	i	0.97	101	nt	nt	nt	8
CCO[C@H]1OC(C(=O)NC2CC2)=C[C@@H](C2CCCCC2)[C@@H]1CCCO	i	0.95	91	nt	nt	nt	nt
COc1ccccc1NC(=O)N1CCCC1	i	1.1	102	nt	16	140	-3
Cc1cccc(OCCNC(=S)NC(=O)c2cccnc2)c1	i	0.97	98	-2.4	nt	nt	-6
N#Cc1nc(-c2cccs2)oc1NCc1ccccc1	i	1.2	89	0.2	nt	nt	-1
Cc1cccc2cc(CN(CC3CCCO3)C(=S)NCc3ccco3)c(=O)[nH]c12 (stereo not drawn)	nt	nt	103	-1.4	8	78	-10
O=C(CNC(=O)c1ccc2ccccc2c1)OCC(=O)N1CCN(S(=O)(=O)c2ccc3ccccc3c2)CC1	i	1.1	78	-0.7	-19	90	1
COC(=O)c1cc(OC)c(OC)cc1NC(=S)N1CCC(C(N)=O)CC1	i	1	97	-2.8	42	64	3
COc1ccc(-n2c(=O)c(CCC(=O)N(C)Cc3ccccc3C)nc3ccccc32)cc1	i	0.97	98	nt	nt	nt	3
O=C1C2C3C=CC(C3)C2C(=O)N1c1n[nH]c(-c2ccccc2)n1 (stereo not drawn)	i	1.1	100	-2.9	46	96	-3
Cc1cc(=O)[nH]c(N)n1	i	1	110	nt	nt	nt	nt
CS(=O)(=O)N1CCN(C2Cc3ccccc3C2)CC1	i	1.1	106	-0.2	-11	110	-4

Exported with bars between the fields: five of the compounds above.
Molecule | HSV replic up | HSV replic up primary fold | RGS16-Gao HTS | GALR2 agonist | INS promoter inh | INS promoter inh cell count | PKD1 inh
COc1cc(N2CN=c3s/c(=C\c4ccccn4)c(=O)n3C2)cc(OC)c1OC | i | 1 | 107 | -0.5 | -4 | 87 | -12
COCc1nc(-c2cc(OC)c(OC)c(OC)c2)no1 | i | 0.91 | 106 | -0.6 | nt | nt | -10
CCCOc1ccc(Cn2cnc3ccccc32)cc1 | i | 0.67 | 100 | -2.2 | 12 | 110 | -2
Cc1snc(SCC(=O)N/N=C(\N)COc2ccc(F)cc2)c1C#N | i | 0.77 | 104 | -1.3 | nt | nt | 2
Cc1c(CCO)c(=O)oc2n[nH]c(-c3ccccc3)c12 | i | 0.93 | 98 | nt | 0 | 177 | 4

(listing goes on)
SMILES	HSV replic up	HSV replic up primary fold	RGS16-Gao HTS	GALR2 agonist	INS promoter inh	INS promoter inh cell count	PKD1 inh
COCc1nc2ccccc2n1Cc1c(F)cccc1Cl	i	1	104	nt	nt	nt	-5
CC(C)COC(=O)C(C#N)c1nc2ccccc2nc1N1CCN(Cc2ccc3c(c2)OCO3)CC1 (stereo not drawn)	i	1.1	107	-2.1	33	137	13
COc1ccc(C(=O)NCC(=O)OCc2ccc(Br)cc2)cc1	i	1	124	-1.1	0	113	-1
Cc1cc(OC(=O)c2ccccc2)n(CCC#N)n1	i	1	105	-2.2	nt	nt	-4
O=C1ON=C(c2ccccc2)/C1=C/c1ccc(OS(=O)(=O)c2ccccc2)cc1	i	1	94	0.0	26	58	-7
COc1ccc(S(=O)(=O)n2nc(OC(=O)c3ccccc3Br)cc2N)cc1	nt	nt	73	-2.9	-38	74	0

Screens (PubChem BioAssay)
